From PubChem
rRNA inh HTS: reduced GFP signal of wild-type E. coli, primary screen, bacterial rRNA inhibitor project, GFP/RFP fluorescence, OD600, single point; GFP signal change (wild-type ribosome), % (test concentration not listed); AID 720706, 2013; E. coli WT GFP vs humanized-ribosome RFP mutants, 24 h; active compounds read low; DMSO median 0, no signal -100; hit rate 1.6% among 350,000;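 active means significant combined selectivity score with lowered wild-type GFP, culture density cut under 30%, mutant RFP and density less affected; inactive means any of these conditions unmet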; further: one replicate is shown; some compounds called inactive have numbers as strong as hits
rRNA inh HTS OD600: also measured in rRNA inh HTS; calls as there; OD600 change, %; measured here: OD600 growth;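 optical density of the mix in the first replicate; 0 = DMSO median and -100 = no signal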
rRNA inh HTS RFP: further read-out of rRNA inh HTS, marked with its call; RFP signal change, %; measured here: RFP humanized mutant strains;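 first replicate; 0 = DMSO median and -100 = no signal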
Starred values were filed as active, the others as inactive; & = joins results of further samples. These rows are one share of the data, so the mix of outcomes need not match the whole.

SMILES	rRNA inh HTS	rRNA inh HTS OD600	rRNA inh HTS RFP
C[C@@H]1CN([C@@H](C)CO)C(=O)c2cccc(NS(=O)(=O)c3ccc(F)cc3)c2O[C@H]1CN(C)C(=O)Nc1cccc2ccccc12	-11	-12	0.0
O=C(Nc1ccc(F)cc1)N1CC(=O)N2[C@H](CO)[C@H](c3ccc(Br)cc3)[C@H]2C1	-6	-7	-0.4
Cc1ccccc1NC(=O)Nc1ccc2c(c1)C(=O)N(C)[C@H]1CC[C@H](CC(=O)NCC3CC3)O[C@H]1CO2	1	1	0.1
COCC(=O)N(C)C[C@@H]1Oc2cc(-c3ccc(C)cc3)ccc2S(=O)(=O)N([C@H](C)CO)C[C@@H]1C	-5	3	-3.5
O=C(Nc1ccc(F)c(Cl)c1)C1Cc2c(-c3cccc(F)c3)ccnc2O1 (stereo unspecified)	-38	-66	1.6
CCN(CC)c1ccc2cc(C(=O)c3cccs3)c(=O)oc2c1	-8	-37	-6.6
COC(=O)c1ccc(N)c2c(N)ccc(C(=O)OC)c12	1	0	0.7
CCCC#Cc1ccc2c(c1)O[C@H](CN(C)Cc1ccncc1)[C@@H](C)CN([C@H](C)CO)S2(=O)=O	-30	-47	33
Cc1noc(C)c1NC(=O)Nc1ccc2c(c1)C(=O)N([C@@H](C)CO)C[C@H](C)[C@@H](CN(C)Cc1ccc(C(=O)O)cc1)OCCCC[C@H](C)O2	5	11	-1.4
O=C(C[C@H]1CC[C@@H](NC(=O)c2cccnc2)[C@H](CO)O1)NCc1ccc(Cl)c(Cl)c1	0	6	-1.5
CNC[C@@H]1Oc2cc(-c3cncnc3)ccc2S(=O)(=O)N([C@H](C)CO)C[C@H]1C	1	12	9.3
O=C(c1cc(COc2c(F)cccc2F)on1)N1CC[C@@H]2CCCC[C@H]2C1	-39	-71	-11
O=C(CC1CC1)N1CC[C@@H]2[C@H]1c1cc(-c3ccc(F)cc3)ccc1N[C@@H]2CO	-6	-6	8.2
C[C@H]1CN([C@@H](C)CO)S(=O)(=O)c2ccc(C#CC3CCCC3)cc2O[C@@H]1CN(C)C(=O)Cc1ccncc1	-2	-17	7.7
Cc1cccc(S(=O)(=O)N2C[C@@H](O)COC[C@H]3O[C@@H](CC(=O)N4CCN(C)CC4)CC[C@@H]32)c1	3	15	-1.9
O=C(Nc1cccc(OC(F)(F)F)c1)c1ccc(-c2cccnc2)c2ccoc12	-4	5	-2.4
Nc1nc2ccc(Br)cc2s1	-9	-16	-0.3
CO[C@@H]1CN(C)C(=O)c2ccc(NC(C)=O)cc2OC[C@H](C)N(S(=O)(=O)c2cn(C)cn2)C[C@H]1C	1	0	1.0
O=C(C[C@H]1C[C@H]2c3cc(NS(=O)(=O)c4ccc(F)cc4)ccc3O[C@H]2[C@H](CO)O1)NCc1cccc(F)c1	-3	-28	19
COCC(=O)NC[C@H]1[C@@H](c2ccccc2)[C@H](CO)N1C(C)=O	2	6	0.2
C[C@H]1CN([C@@H](C)CO)C(=O)c2cc(NC(=O)Cn3cnnn3)ccc2O[C@@H]1CN(C)Cc1ccncc1	-1	1	-0.3
Cc1ccc([C@@H]2C[C@H]3[C@@H](CN2S(=O)(=O)c2ccc(Cl)cc2)C(=O)C[C@@H](c2cccc(Cl)c2)N3S(=O)(=O)c2ccc(C)cc2)cc1	5	18	-2.7
C[C@@H]1CN([C@H](C)CO)C(=O)c2cccc(NC(=O)C3CCOCC3)c2O[C@H]1CN(C)Cc1ccc(C(=O)O)cc1	2	8	-2.5
O=C(C[C@H]1CC[C@@H]2[C@H](COC[C@H](O)CN2Cc2cccc(F)c2)O1)NCc1cccc(F)c1	-9&-4	-9&0	2.1&0.8
CO[C@@H]1CN(C)C(=O)c2cc(NC(=O)c3ccccc3)ccc2OC[C@H](C)N(CC2CC2)C[C@@H]1C	-2	-4	0.5
CCC(=O)N1CC2(C1)[C@@H](c1ccccc1)[C@@H](CO)N2CC1CC1	2	4	-1.8
COc1cccc(NC(=O)C[C@@H]2CC[C@@H]3[C@H](COc4ccc(NC(=O)C5CCOCC5)cc4C(=O)N3C)O2)c1	-1	7	-1.2
Cc1ccc(NC(=S)NNC(=S)NNc2ccccc2)cc1C	-7	-15	-0.5
Nc1nnc2cc(Br)ccc2n1	14	8	0.6
C[C@@H]1CCCCO[C@H](CN(C)Cc2ccncc2)[C@H](C)CN([C@H](C)CO)C(=O)c2cc(NC(=O)c3ccncc3)ccc2O1	-2	4	-1.1
C[C@@H]1CCCCO[C@H](CN(C)S(=O)(=O)c2cccs2)[C@H](C)CN([C@@H](C)CO)C(=O)c2cc(NC(=O)Cc3ccccc3)ccc2O1	-1	2	1.7
Cc1ccc(S(=O)(=O)NCC[C@@H]2CC[C@H](NC(=O)c3ccccn3)[C@@H](CO)O2)cc1	0	-10	-2.6
C[C@@H]1CN([C@@H](C)CO)C(=O)c2cc(NC(=O)Nc3ccc(F)cc3)ccc2O[C@@H]1CN(C)Cc1ccc(-c2ccccc2)cc1	-5	-4	5.9
CC(C)NC(=O)N(C)C[C@H]1Oc2c(NC(=O)c3ccc(-c4nccs4)cc3)cccc2C(=O)N([C@@H](C)CO)C[C@@H]1C	2	-1	-0.9
CN(C)CCCNC(=O)C[C@H]1CC[C@@H]2[C@H](COC[C@H](O)CN2Cc2cccc(F)c2)O1	7	13	-2.6
CCCCn1nnnc1C(c1ccccc1)N1CCN(C(=O)c2ccco2)CC1 (stereo unspecified)	-1	4	10
Cc1ccc(S(=O)(=O)Nc2ccc3c(c2)C(=O)N([C@@H](C)CO)C[C@@H](C)[C@H](CN(C)Cc2ccccc2)OCCCC[C@@H](C)O3)cc1	1	1	3.0
CC(C)CC#Cc1cnc2c(c1)C(=O)N([C@H](C)CO)C[C@H](C)[C@@H](CN(C)S(=O)(=O)c1cccs1)O2	-1	0	0.3
C[C@@H]1CCCCO[C@@H](CN(C)C(=O)Nc2ccc(F)cc2)[C@@H](C)CN([C@H](C)CO)C(=O)c2cc(NC(=O)C3CCCCC3)ccc2O1	9	3	0.4
O=C(CN1CCOCC1)N1[C@H](CO)[C@H]2c3ccccc3NC[C@H]21	1	2	-0.1
COc1cccc(S(=O)(=O)N2CC3(CN[C@@H](CO)c4[nH]c5cc(OC)ccc5c43)C2)c1	-5	-11	-0.1
COc1ccc(CN2C[C@@H](CO)O[C@@H](n3cnc4c(NCc5cc(OC)c(OC)c(OC)c5)ncnc43)C2)cc1	-3	-4	-0.4
CO[C@H]1CN(C)C(=O)c2cc(NS(C)(=O)=O)ccc2OC[C@H](C)N(CCC(F)(F)F)C[C@H]1C	1	4	0.0
Cc1cccc(-c2ccc([C@@H]3[C@H](CO)N4CCCCN(S(=O)(=O)c5ccccc5F)C[C@@H]34)cc2)c1	-48	-69	-5.7
CNC[C@H]1OCCCC[C@H](C)Oc2ccc(NS(=O)(=O)c3cccs3)cc2C(=O)N([C@@H](C)CO)C[C@H]1C	-1	-2	0.8
C[C@@H]1CN([C@@H](C)CO)S(=O)(=O)c2ccc(-c3ccc(C(=O)N(C)C)cc3)cc2O[C@H]1CN(C)C(=O)C1CCCCC1	-6	-19	-1.3
Nc1ccc(CCCC(=O)NCc2cccnc2)cc1	-4	3	-3.6
C/C=C/c1cnc2c(c1)C(=O)N([C@@H](C)CO)C[C@H](C)[C@H](CN(C)Cc1ccc(F)cc1)O2	-2	-7	-0.3
C[C@H]1CCCCO[C@H](CN(C)Cc2ccc(C(=O)O)cc2)[C@@H](C)CN([C@@H](C)CO)C(=O)c2cc(NS(=O)(=O)c3ccccc3)ccc2O1	1	7	0.6
CCc1nc2c(OCc3ccccc3)cccn2c1N(C)C(=O)c1ccc(OC)cc1	-11	-47	-2.8
CCCC#C/C(CCC)=C1\c2ccccc2C(=O)N1c1ccccc1	-16*	-1.5*	5.9*
C/C=C/c1cnc2c(c1)C(=O)N([C@@H](C)CO)C[C@@H](C)[C@H](CN(C)S(=O)(=O)c1ccc(OC)cc1)O2	-4	2	0.5
O=C(N[C@H]1CC[C@H](CCn2cc(Cc3ccccc3)nn2)O[C@@H]1CO)c1cnccn1	1	2	-2.5
O=S1(=O)CC(N2CCCC2)CN1CCc1ccccc1 (stereo unspecified)	8	3	2.6
COC(=O)[C@@]12C[C@@H](CC(=O)NCc3ccccc3)C(=O)N(CCc3ccc(OC)c(OC)c3)C1=CCC(C)(C)C2	-8	-8	2.6
COC(=O)[C@]12C[C@H](CC(=O)NCCC(C)C)C(=O)N(CCC3=CCCCC3)C1=C[C@H](COCc1ccccc1)O[C@@H]2C	5	8	2.1
CO[C@H]1CN(C)C(=O)c2cc(NC(=O)Nc3c(C)noc3C)ccc2OC[C@H](C)N(CC2CC2)C[C@@H]1C	-1	-3	-1.4
CCCC(=O)Nc1ccc2c(c1)C(=O)N(C)C[C@H](OC)[C@H](C)CN(CCC(F)(F)F)[C@H](C)CO2	-1	-4	-1.0
C[C@@H]1CN([C@H](C)CO)C(=O)c2cccc(NC(=O)Nc3cccc4ccccc34)c2O[C@@H]1CN(C)S(=O)(=O)c1cccs1	-3	1	2.1
OC(c1ccc(F)cc1)c1ncc(-c2cccc3ccccc23)[nH]1 (stereo unspecified)	-5	-23	8.5

The list goes on.
SMILES	rRNA inh HTS	rRNA inh HTS OD600	rRNA inh HTS RFP
CCCN(C)C[C@H]1OCCCC[C@H](C)Oc2ccc(NC(=O)Cc3ccccc3)cc2C(=O)N([C@@H](C)CO)C[C@H]1C	2	2	0.4
O=C(NC1CCC1)[C@@H]1[C@@H](CO)[C@@H]2Cn3c(ccc(-c4ccncc4)c3=O)[C@@H]2N1CCc1ccccc1	-1	-2	2.3
COc1ccc(S(=O)(=O)Nc2ccc3c(c2)[C@H]2C[C@H](CC(=O)NCC4CC4)O[C@@H](CO)[C@H]2O3)cc1	1	-9	0.0
O=C(C[C@@H]1CC[C@@H](NS(=O)(=O)c2ccc(F)cc2)[C@H](CO)O1)NCCN1CCCCC1	1	11	5.8
CN(C)C(=O)C[C@@H]1CC[C@H]2[C@@H](COC[C@@H](O)CN2C(=O)c2ccncc2)O1	10	17	-4.6
C/C=C/c1ccc([C@H]2[C@H]3CN(C(=O)Nc4ccc(F)cc4)CC(=O)N3[C@H]2CO)cc1	6	27	-2.9
CC(O)(c1ccc(F)c(F)c1)c1nc(-c2cc(F)cc(F)c2)cs1 (stereo unspecified)	-63	-79	-20
COCC(=O)N1CC2(C1)[C@H](c1ccccc1)[C@@H](CO)N2C(=O)NC1CCCC1	-1	12	-3.2
C[C@@H]1CN([C@@H](C)CO)C(=O)Cc2cc(NC(=O)Cn3cnnn3)ccc2O[C@@H]1CN(C)S(C)(=O)=O	1	11	1.5
O=C(C[C@H]1CC[C@@H]2[C@H](COC[C@@H](O)CN2C(=O)c2ccncc2)O1)NCc1cc(F)cc(F)c1	3	12	0.8
CN(C)C(=O)C[C@@H]1CC[C@H]2[C@@H](COC[C@@H](O)CN2CC2CCOCC2)O1	9	28	0.4
COCCNC(=O)C[C@@H]1CC[C@H]2[C@@H](COc3ccc(NC(=O)C4CCCC4)cc3C(=O)N2C)O1	1	8	-1.7
CCC(=O)Nc1ccc2c(c1)C(=O)N(C)[C@H]1CC[C@@H](CC(=O)NCC3CCCCC3)O[C@@H]1CO2	2	3	-1.2
CO[C@H]1CN(C)C(=O)c2ccc(NS(=O)(=O)c3ccccc3)cc2OC[C@@H](C)N(C)C[C@H]1C	0	0	-2.8
CC(=O)NC[C@H]1[C@@H](c2ccc(-c3ccccc3)cc2)[C@H](CO)N1C(=O)C1CC1	-2	-5	-1.7
O=C(Nc1c(-c2ccccc2)[nH][nH]c1=O)c1ccccc1	22	18	1.0
Cc1ccc(S(=O)(=O)N(C)C[C@@H]2OCCCC[C@H](C)Oc3ccc(NS(=O)(=O)c4ccc(Cl)cc4)cc3C(=O)N([C@@H](C)CO)C[C@H]2C)cc1	-2	6	1.7
COc1ccccc1-c1ccc2c(c1)O[C@H](CN(C)CC1CCOCC1)[C@H](C)CN([C@@H](C)CO)S2(=O)=O	1	6	-0.6
COc1cc(-c2cc(C(=O)O)c3cc4ccccc4cc3n2)cc(OC)c1OC	-15	-4	-1.4
